Rango-impB inh: qHTS Assay for Inhibitors of Rango (Ran-regulated importin-beta cargo) - Importin beta complex formation. Importin subunit beta-1 (Homo sapiens), Q14974. Rango CFP/YFP FRET sensor + importin beta, 45 min. Potency, µM (highest dose often 92.2 µM), for the others: at the top dose inhibition of complex formation. 0.031% of 340,000 active; active = rising FRET ratio curve, often small or poorly fitted; inconclusive = mostly compound fluorescence or quenching in the first reads; inactive = flat curves in all reads;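 also: potency is read from the fitted curve at half-maximal effect; 0% = DMSO wells and 100% = buffer wells lacking importin beta; nearly all actives have a fitted effect of over 15% in size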
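FRET biosensor Rango (snurportin 1 IBB between N-terminal EYFP and C-terminal Cerulean), 50 nM in PBS/1 mM DTT/0.02% Tween-20/0.1% BSA, preincubated 5 min RT with compound; 0.125 microM importin beta added, 45 min RT, CFP/YFP FRET ratio read.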
GLA inh pH 4.5: qHTS Assay for Inhibitors of Human alpha-Galactosidase at pH 4.5; purified enzyme, 4-MU-alpha-Gal fluorescence, pH 4.5; AID 1467, 2008; activity change, negative = inhibition, % at 105 µM; Alpha-galactosidase A (Homo sapiens), P06280; 230,000 tested, under 10 active; inconclusive = small, poorly fitted or top-dose-only inhibition, or a rising curve; inactive = flat fitted curve, though single readings scatter; no compound was filed as active;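 also: 0% = full activity with enzyme and -100% = basal without enzyme; dose as in the result columns while the protocol names 77 µM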
Target sequence (P06280 whole entry, looked up): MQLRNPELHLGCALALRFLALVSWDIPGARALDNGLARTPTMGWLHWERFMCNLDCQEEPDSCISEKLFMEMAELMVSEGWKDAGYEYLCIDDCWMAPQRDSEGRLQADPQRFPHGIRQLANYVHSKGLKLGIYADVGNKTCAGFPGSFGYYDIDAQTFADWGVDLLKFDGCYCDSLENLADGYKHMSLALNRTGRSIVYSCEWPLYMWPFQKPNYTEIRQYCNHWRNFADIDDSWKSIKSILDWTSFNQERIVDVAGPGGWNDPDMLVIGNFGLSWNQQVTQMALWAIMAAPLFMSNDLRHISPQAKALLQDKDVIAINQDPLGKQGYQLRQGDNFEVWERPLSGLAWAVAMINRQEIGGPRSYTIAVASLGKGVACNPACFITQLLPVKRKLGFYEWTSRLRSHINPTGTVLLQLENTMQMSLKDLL
miR-21 reporter: qHTS Assay for Modulators of miRNAs and/orActivators of miR-21; HeLa miR-21 FLuc reporter, luciferase, 48 h; Potency, µM (series often up to 38.3 µM), without a hit: top-dose reporter change, positive = more light; 340,000 tested, under 10 active; active = well fitted rising curve with a large enough effect; inconclusive = small, poorly fitted or top-dose-only effect; inactive = no such curve, though single readings can be large or run the other way;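 also: % of control where 0% means no effect; miR-21 action dims this reporter so a rising signal means less miR-21 action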
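HeLa miR-21-FLuc reporter line, endogenous miR-21; 2000 cells/well in DMEM/10% FBS; compound titration up to ~40uM final, 48 h, 37 degree Celsius; luciferase detection reagent, 15 min lysis, CCD luminescence.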
Rango dissoc inh: qHTS Assay for Inhibitors of RanGTP induced Rango (Ran-regulated importin-beta cargo) - Importin beta complex dissociation; Snurportin-1 (Homo sapiens) + GTP-binding nuclear protein Ran (Homo sapiens) + Importin …; Biochemical FRET Rango-importin beta, RanGTP-induced dissociation; Potency, µM (top dose mostly 46.1 µM), inactives show at the highest dose activity change, negative = inhibition; 0.071% of 340,000 active; AID 540253, 2011; active means falling FRET ratio curve, often poorly fitted, with flat reads before Ran was added; inconclusive means other falling curves, or compound fluorescence or quenching; inactive means flat or rising ratio curve;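 also: potency is read from the fitted curve at half-maximal effect; % of control where 0% means no effect; nearly all actives have a fitted effect of over 45% in size; -100% = wells without RanGTP and RCC1; the record marks most hits as doubtful in a second field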
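Compounds sat 5 min at room temperature with 0.1 uM Rango biosensor plus 0.25 uM importin beta, then FRET pre-read. RanGTP-RCC1 (0.6 uM Ran, 2mM GTP, 0.2 uM RCC1) added for 45 min, and the CFP/YFP post-read measured blocked complex dissociation.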
Numbers without * were called inactive; ? = inconclusive; . = not tested or not shown; & = joins results of further samples. Some of the compounds tested; the hit share may differ from the screen's.

SMILES	Rango-impB inh	GLA inh pH 4.5	miR-21 reporter	Rango dissoc inh
CC(=O)OC(C)=O	-0.8%	.	.	8%
COc1cc(/C=C2/N=C(C3CCCCC3)OC2=O)cc(OC)c1OC	-1.1%	9	0%	1%
Cc1ccc(OCC(=O)n2nc(C)cc2C)c(Br)c1	2.2%	-6	-23%	1%
CCOC(=O)NCc1ccc(S(=O)(=O)Nc2ccc(C)cc2)cc1	2.9%	2	-2%	7%
Cc1nc2sc(-c3ccccc3)cc2c(=O)[nH]1	-2.7%	-8	-3%	-15%
CCn1nc(C)c(CNCc2cn[nH]c2-c2cc3ccccc3o2)c1C	3.0%	-2	1%	7%
CC(=O)c1ccc(NC(=O)C(C)OC(=O)C(C)Oc2cccc(C)c2)cc1 (stereo not drawn)	-2.0%	-3	-2%	3%
C[C@H](CO)N1C[C@H](C)[C@@H](CN(C)Cc2ccc(C(=O)O)cc2)Oc2ccc(NS(C)(=O)=O)cc2C1=O	1.2%	.	.	?
COc1ccc(Cl)cc1C(=O)NNC(=O)c1cccc([N+](=O)[O-])c1	-1.8%	5	2%	1%
O=C(NCc1nnc2c(C(F)(F)F)cc(Cl)cn12)c1cccs1	-0.8%	.	1%	-2%
CN(CC(=O)Nc1ccc(F)cc1)C(=O)CSc1ccc2c(c1)OCCO2	0.0%	.	.	-17%
BrC(=C\c1ccccc1)/C=N/N1CCN(c2ccccn2)CC1	-0.6%	-9	-12%	8%
COc1ccc(-c2cc(C(=O)OCC(=O)N(C)C3CCS(=O)(=O)C3)c3ccccc3n2)cc1OC (stereo not drawn)	?	-5	-10%	13%
CC(C(=O)Nc1ccccn1)c1ccccc1 (stereo not drawn)	-0.5%	.	0%	-17%
COc1ccccc1N1CCN(Cc2cc3c(cc2O)OCO3)CC1	-0.5%	.	-2%	5%
CC(=O)N/N=C/C1=CCC2CC1C2(C)C (stereo not drawn)	-2.7%	1	-1%	-9%
O=C(Nc1ccc(F)cc1)C1CC(=O)N(Cc2ccco2)C1 (stereo not drawn)	-0.5%	.	0%	6%
CC(=O)c1c(Nc2ccc3c(c2)OCCO3)oc(C)cc1=O	-1.8%	-7	-38%	-29%
Cn1c(=O)c2c(ncn2CC(=O)N/N=C/c2c[nH]c3ccccc23)n(C)c1=O	.	0	-2%	.
COc1ccc(C)cc1NC(=O)CN(C)S(=O)(=O)c1cc(C)ccc1OC	?	-5	-9%	-5%
COc1cc(C(=O)NCCC(c2ccccc2)c2ccccc2)cc(OC)c1OC	-0.6%	.	11%	9%
CCN(C(=S)NC(=O)C1CC1)c1ccccc1	3.8%	.	-1%	3%
CN1C(=O)c2ccccc2Sc2ccc(NC(=O)NC3CC3)cc21	0.8%	1	-7%	21%
CC(C)[C@H]1COCCS(=O)(=O)N1Cc1ccccc1-c1cccc(Cl)c1	1.1%	.	.	26%
CC(C)S(=O)(=O)C/C(N)=N/OC(=O)c1cc(Cl)cc(Cl)c1	0.5%	4	-20%	0%
CC[n+]1c(-c2ccccc2)csc1Nc1c(C)n(C)n(-c2ccccc2)c1=O	-1.6%	6	-2%	1%
CC(=Nc1ccc2c(c1)nc(CO)n2C)C1=C(O)CC(C)(C)CC1=O	-2.1%	8	-20%	-8%
CC(C)N(Cc1ccccc1)C(=O)COC(=O)C1CCCCC1	-1.9%	.	.	3%
CCOc1ccc(NC(=O)C2CC(=O)N(C)C(=Nc3ccc4c(c3)OCO4)S2)cc1 (stereo not drawn)	0.3%	5	0%	0%
Cc1ccccc1OCC(=O)NNC(=O)c1cc(S(=O)(=O)N(C)C)ccc1N1CCCC1	0.1%	.	-2%	17%
Cc1ccc(-c2nc(SCC(N)=O)c(C#N)c3c2CCCC3)cc1	0.4%	3	13%	-6%
CC(=O)c1cc2c(cc1N/C(=N/S(=O)(=O)c1ccc(C)cc1)c1ccccc1)OCO2	?	-7	4%&-1%	-10%
Cc1ccc(SCc2cc(=O)n3[nH]c(C)nc3n2)cc1	-4.5%	6	-6%	6%
O=C(Nc1cccnc1)c1cccc(S(=O)(=O)Nc2ccccc2F)c1	-1.6%	.	.	-3%
O=C(NCc1ccco1)c1cnc2sccn2c1=O	7.4%	6	-7%	7%
COc1ccc(Cc2nnc(NC(=O)Nc3ccc(F)cc3)s2)cc1OC	2.0%	.	0%	-11%
CC1CCCC(C)N1C(=O)COC(=O)c1ccc(Br)o1 (stereo not drawn)	4.2%	.	.	-5%
CC(C)(C)NC(=O)C(c1cccs1)N(CC1CCCO1)C(=O)c1ccc(-c2ccccc2)[nH]1 (stereo not drawn)	1.2%	?	-11%	-2%
COCCCNc1cc(C)nc2ccccc12	-0.5%	-8	1%	1%
CSCC[C@H](NC(=O)c1ccc(Br)o1)c1nnc2ccccn12	0.2%	.	-3%	5%
NS(=O)(=O)c1ccc(NC(=O)COC(=O)CC2Sc3ccccc3NC2=O)cc1 (stereo not drawn)	-4.5%	.	.	4%
C/C(=N\Nc1ccc(F)cc1)c1ccc(N2CCOCC2)c(F)c1	-1.3%	.	-6%	-12%
Cc1cccc(CCNS(=O)(=O)c2ccc3c(c2)NC(=O)C(C)S3)c1 (stereo not drawn)	2.9%	.	1%	-5%
CN(C(=O)COc1ncnc2sccc12)C1CCCCC1	0.3%	.	.	7%
CCOC(=O)Cn1c(=O)c2c(nc3n2CCS3)n(C)c1=O	0.2%	0	4%	18%
CCN(CC(=O)Nc1ccc(NC(C)=O)cc1)C(=O)CCCc1nc2ccccc2s1	0.0%	.	.	14%
COc1ccc(S(=O)(=O)NCCCCC(=O)O)cc1C(=O)O	?	5	2%	?
CCC(=O)Nc1cccc(C(=O)c2ccc(C)c(C)c2)c1	2.8%	3	4%	-11%
S=C(NCc1ccc2[nH]c3c(c2c1)CCCC3)Nc1ccccc1Cl	?	-12	4%	-17%
Cc1cccc(OC(C)C(=O)N2CCc3ccccc3C2)c1 (stereo not drawn)	-0.6%	.	-6%	0%

Two entries drawn at random from the list so far:
SMILES	Rango-impB inh	GLA inh pH 4.5	miR-21 reporter	Rango dissoc inh
CCn1nc(C)c(CNCc2cn[nH]c2-c2cc3ccccc3o2)c1C	3.0%	-2	1%	7%
BrC(=C\c1ccccc1)/C=N/N1CCN(c2ccccn2)CC1	-0.6%	-9	-12%	8%

(cont.)
SMILES	Rango-impB inh	GLA inh pH 4.5	miR-21 reporter	Rango dissoc inh
O=S1(=O)CCN2C(Cc3ccc(SC(F)F)cc3)=CSC2=N1	-0.1%	9	-2%	-5%
CCN(N=O)[C@@H](Cc1ccccc1)CN(N=O)[C@@H](Cc1ccccc1)CN(C)N=O	-1.4%	4	-2%	-7%
COc1ccc(C(C)(C)C)cc1NC(=O)CCN1C(=O)NC(C)(C)C1=O	6.0%	.	.	-26%
CC(=O)CNc1ccc(S(=O)(=O)N/N=C/c2ccccc2)cc1	1.0%	-2	-9%	9%
COC(=O)C1(CCSC)NC(c2ccc(O)c(OC)c2)C2C(=O)N(c3ccc(C)cc3)C(=O)C21 (stereo not drawn)	3.0%	6	1%	1%
Cc1cccc(/C=N/n2c(C)cc(C)c(C#N)c2=O)c1	0.8%	-3	-10%	22%
Cc1c(C(=O)N2CCCC2)c(S(=O)(=O)Nc2ccccc2)c(C)n1C	1.3%	.	0%	-15%
COCC(=O)Nc1cc(C)cn(Cc2cccc(C(F)(F)F)c2)c1=O	-0.3%	.	-1%	-18%
S=C1NCN(CCc2ccccc2)CN1	-1.0%	7	-1%	1%
Cc1ccc(S(=O)(=O)Nc2cc3c4c(c2)CCN4C(=O)CC3)cc1	0.7%	.	.	9%
Cc1nc(NC(=O)c2c(-c3ccccc3)noc2C)sc1C(=O)N(C)C	-3.4%	.	2%	13%
O=C(CN1CCN(c2ccccn2)CC1)N1c2ccccc2Sc2ccc(C(F)(F)F)cc21	0.1%	-17	16%	-14%
O=C(COC(=O)c1ccc([N+](=O)[O-])o1)Nc1ccc(N2CCOCC2)cc1	0.4%	.	.	9%
O=C(O)c1ccc(Nc2nc3c(s2)CCCC3)cc1	4.5%	6	12%	-4%
CC1=NN(C(=O)CCc2ccccc2)C(O)(c2ccncc2)C1 (stereo not drawn)	2.1%	4	-2%	22%
O=C(O)c1cnn(-c2nc(-c3cccc(F)c3)cs2)c1C(F)(F)F	-1.2%	2	-31%	19%
COc1ccc(N2CCN(C(=O)Cc3cccs3)CC2)cc1	-1.0%	-2	-3%	-4%
Cc1[nH]c(C)c(S(=O)(=O)N2CCC(C)CC2)c1C(=O)N1CCCC1	0.8%	.	-2%	-3%
CCN(CC)C(=O)Cn1c(=O)n(-c2ccccc2)c(=O)c2c3c(sc21)CCC3	-3.3%	-4	-1%&0%	-8%
CC(Oc1ccccc1)C(=O)N=Nc1c(O)[nH]c2ccc(Br)cc12 (stereo not drawn)	1.6%	-1	-2%	9%
C[C@H](NC(=O)[C@H]1N2C(=O)c3ccccc3C2SC1(C)C)C(=O)N1CCCCC1 (stereo partly drawn)	2.5%	.	-1%	-4%
Cc1ccnc(NC(=O)CNC(=O)Cc2cccc3ccccc23)c1	2.7%	.	.	16%
Cc1sc(NC(=O)CS(=O)(=O)c2ccccc2)c(C(N)=O)c1C	-5.5%	.	.	3%
COc1ccc2oc(=O)c(C(=O)Nc3ccccc3-c3ccccc3)cc2c1	-4.4%	1	-2%	-3%
Cc1ccc(N2CC(NS(=O)(=O)c3cccnc3)CC2=O)cc1 (stereo not drawn)	-0.9%	.	.	17%
COc1cc2c(cc1OC)CN(c1nc(CN3CCOCC3)nc3sc4c(c13)CCCC4)CC2	-4.1%	-4	-1%	?
Cc1ccc(N2CC(C(=O)Nc3cc(Cl)ccc3-n3cncn3)CC2=O)cc1 (stereo not drawn)	0.2%	.	.	0%
O=C(NNC(=O)C1CCC1)c1ccccc1	0.3%	.	.	0%
CCOC(=O)C[n+]1c(C)sc2ccc(OC)cc21	-2.1%	4	6%	-9%
O=C1CC(c2cccs2)CC2=C1C(c1ccccc1)n1ncnc1N2 (stereo not drawn)	7.0%	9	-1%	-5%

Of the compounds above, six have a furan ring, fused or not:
SMILES	Rango-impB inh	GLA inh pH 4.5	miR-21 reporter	Rango dissoc inh
CCn1nc(C)c(CNCc2cn[nH]c2-c2cc3ccccc3o2)c1C	3.0%	-2	1%	7%
O=C(Nc1ccc(F)cc1)C1CC(=O)N(Cc2ccco2)C1 (stereo not drawn)	-0.5%	.	0%	6%
O=C(NCc1ccco1)c1cnc2sccn2c1=O	7.4%	6	-7%	7%
CC1CCCC(C)N1C(=O)COC(=O)c1ccc(Br)o1 (stereo not drawn)	4.2%	.	.	-5%
CSCC[C@H](NC(=O)c1ccc(Br)o1)c1nnc2ccccn12	0.2%	.	-3%	5%
O=C(COC(=O)c1ccc([N+](=O)[O-])o1)Nc1ccc(N2CCOCC2)cc1	0.4%	.	.	9%

(cont.)
SMILES	Rango-impB inh	GLA inh pH 4.5	miR-21 reporter	Rango dissoc inh
O=C(O)c1ccc(N=N/C(=N\Nc2ccc(C(=O)O)cc2)c2ccccc2)cc1	?	.	.	13%
COc1ccc(CC(=O)OCc2cc3ccc(C)cc3[nH]c2=O)cc1	4.2%	6	-7%	-18%
Cc1ccc(OCC(=O)N(C)CC(=O)Nc2ccc(N3CCOCC3)cc2)cc1	-1.5%	.	.	-6%
O=C(/C=C/c1ccc(-c2ccc(F)cc2)o1)N1CCCC1	-0.2%	-13	-85%	3%
COc1ccc(-c2cc(C(=O)NCc3ccc(Cl)cc3)no2)cc1OC	3.5%	6	1%	7%
COc1ccc(Cl)cc1NC(=S)Nc1cccc(C)c1	-5.8%	-5	-6%	13%
O=C(CSc1ncn[nH]1)Nc1cc(S(=O)(=O)N2CCCC2)ccc1Cl	-3.0%	9	-2%	-3%
COc1cccc(/C=N/NC(=O)c2ccc(N(C)S(=O)(=O)c3ccccc3)cc2)c1OC	-2.1%	-3	0%	-4%
CC(C)N1CCC(NC(=O)NC2CCCCC2)CC1	?	3	-13%	20%

High-throughput results: PubChem, National Center for Advancing Translational Sciences (NCATS)
